# High-throughput results as filed in PubChem.
# GIV Gai3 FP: inhibitors of GIV GBA-motif binding to rat Galpha-i3; Galpha-i3/FITC-GIV peptide fluorescence polarization, 90 min; stronger effect = lower value; scaled: aluminum fluoride 0%, vehicle 100%; percent of control (FP), % (no concentration beside the values); 0.42% of 210,000 active;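 active means replicate mean at 85% of control or lower, very high polarization wells dropped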;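 further: wells of about 15 µL received 100 nL stock; the first replicate is given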
# Target sequence (P08753 whole entry, looked up): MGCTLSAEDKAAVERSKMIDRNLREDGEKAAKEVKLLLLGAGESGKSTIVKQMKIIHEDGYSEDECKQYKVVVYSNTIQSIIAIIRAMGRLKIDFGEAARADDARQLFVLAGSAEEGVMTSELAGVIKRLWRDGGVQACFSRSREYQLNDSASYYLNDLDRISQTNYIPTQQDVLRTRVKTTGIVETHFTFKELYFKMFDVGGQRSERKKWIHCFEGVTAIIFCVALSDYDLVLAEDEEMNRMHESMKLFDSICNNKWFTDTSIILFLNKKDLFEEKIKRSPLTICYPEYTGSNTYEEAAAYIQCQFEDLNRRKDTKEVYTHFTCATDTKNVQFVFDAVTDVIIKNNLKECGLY
# Sa growth 42C: S. aureus growth inhibition. S. aureus RN4220 growth, OD600, 20 h, 42 °C; stronger effect = lower value. relative growth, % (test concentration not listed). 0.53% of 170,000 active;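 active means growth at 42 °C up to 50% and 20 or more points under that at 30 °C, or under 10% at both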;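 further: 300 nL library stock went into each well; scaled to the means of positive and negative controls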
# HCMV UL50-53 inh: inhibitors of HCMV UL50-UL53 nuclear egress complex interaction; 0.15% of 190,000 active; HTRF UL50-UL53 interaction, normalized percent inhibition; inhibition, % (test concentration not listed);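 active means both replicates at 50% or more, plus weaker picks with an unusually low signal ratio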;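 further: stock transfer was 100 nL into about 20 µL; 0% = negative control wells and 100% = wells with untagged competitor protein; inactives centre near -12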
# Sa growth 42C second temp: second read-out of Sa growth 42C, no call of its own (marks repeat the call); relative growth, %; measured here: growth at 30 °C;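 optical density after 20 h as mean of two plates; 100% = untreated growth and lower means inhibition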
# Starred values were filed as active, the others as inactive; · = no result given; & = joins results of further samples.
SMILES,GIV Gai3 FP,Sa growth 42C,Sa growth 42C second temp,HCMV UL50-53 inh
Cc1cnc(C(=O)Nc2nc3ccccc3[nH]2)cn1,·,90,92,-37
O=C(Oc1ccccc1)OC1C=CS(=O)(=O)C1 (stereo unspecified),101,116,83,2
COc1ccc(Cn2c(=O)n(-c3ccccc3C)c(=O)c3c4c(sc32)CN(C(C)=O)CC4)cc1,104,111,47,-20
Clc1ccc(Oc2cnns2)c2ccccc12,105,·,·,-13
O=C(Cc1ccc(-n2c(=O)c3ccccc3n(CC(=O)Nc3cc(F)ccc3F)c2=O)cc1)NCC1CCCO1 (stereo unspecified),108,111,88,4
O=c1c(O)c(-c2cccs2)oc2ccccc12,176,78,66,-27
O=C1c2ccccc2-c2onc3c(Cl)cc(NC4CCCCC4)c1c23,·,88,85,-10
CC(=O)N1CCc2cc(S(=O)(=O)CCC(=O)O)ccc21,105,98,88,-8
O=C(O)c1nonc1NCn1nnc2ccccc21,98,86,82,-27
Cn1c(=O)c2cc(C(=O)Nc3nccs3)sc2n(C)c1=O,108,·,·,-17
OCCOC12CC3CC(CC(C3)C1)C2,·,114,94,0
COC(=O)c1cnc(NNC(=O)Cc2ccccc2)nc1C(F)(F)F,100,95,83,-32
Fc1ccc2c(c1)-c1c(cnc3cc(-c4ccc(Cl)cc4)nn13)CO2,108&96,82,82,-24&0
COc1ccc(Cl)cc1NC(=O)c1cc2ccccn2n1,103,112,99,·
CSc1nnc(CCNC(=O)c2ccc3c(c2)OCO3)n1C,103,106,89,-1
CC(=O)c1cc2c3c(c1)C1C=CCC1C(c1ccc(Br)cc1)N3CC1CC=CC21 (stereo unspecified),119,·,·,3
O=C(Nc1cccc(N2CCCC2=O)c1)c1ccccc1,·,86,82,-13
O=C1OC(C2OC(=O)c3ccccc32)c2ccccc21 (stereo unspecified),·,109,86,-8
CCOC(=O)c1c(-c2ccccc2)oc2c1cc(OC(=O)c1ccc(Br)cc1)c1ccccc12,96,·,·,5
Cc1cc(OCC(=O)Nc2ccc(-c3nc4cc(Cl)ccc4o3)cc2)cc(C)c1Cl,94,96,99,-7
CC(C)(C)c1ccccc1NC(=O)c1cnn2c(C(F)F)cc(-c3ccccc3)nc12,100,85,91,-15
Cc1ccc(OC(C)C(=O)Oc2cccc(-n3cnnn3)c2)cc1C (stereo unspecified),105,·,·,10
Cc1nn2c(-n3cccc3)c(-c3ccc(F)cc3)nc2s1,98,·,·,-16
CC(C)Cn1c(C2CC(=O)N(c3ccccc3Cl)C2)nc2ccccc21 (stereo unspecified),107,98,79,-23
CCn1nc(C)c2c1c(=O)n(CCc1ccccc1)c(=O)n2Cc1c(F)cccc1Cl,97,·,·,-6
COc1cccc(N2C(=O)N(c3ccc(Cl)cc3)C3CS(=O)(=O)CC32)c1 (stereo unspecified),98,·,·,-3
CCOC(=O)c1c(C)oc2ncnc(Nc3cc(C)cc(C)c3)c12,106,90,86,·
Cc1cccc(COC(=O)c2nnn(-c3ccc(Br)cc3)c2C)c1,98,·,·,2
CCc1cc2c(COC(=O)c3ccc4c(c3)OCCO4)cc(=O)oc2cc1O,·,80,95,-32
O=C(Cc1csc(NC(=O)Nc2ccccc2)n1)Nc1ccccc1,104,·,·,-14
COc1ccc2c(C)nc(N=C(NC(C)=O)NC(C)=O)nc2c1,105,91,63,-22
CC(NCc1ccccc1)c1cc(Cl)ccc1O (stereo unspecified),99,94,78,-8
COC(=O)c1ccc(/C=N/N2C(C)CCCC2C)cc1 (stereo unspecified),·,85,91,-11
Cc1ccc(NC(=O)CC2SC3=NCCN3C2=O)cc1 (stereo unspecified),108,96,95,2
COc1ccc(C2CC(=O)c3cc(C(=O)Nc4cccc(Br)c4)c(=O)[nH]c3C2)cc1 (stereo unspecified),97,·,·,4
CC(C)(C)c1cc(Cc2ccccc2)[nH]n1,103,74,76,-23
CCc1ccc(OCC(=O)N2CCOCC2)cc1,·,101,91,-8
CN1CCN(C(=O)c2cc3c(-c4ccc(Cl)cc4)nn(C)c3s2)CC1,105,83,108,5
O=C(NCCC1=CCCCC1)c1cc(-c2ccccc2)n[nH]1,104,100,83,-8
CC(C(=O)N1CCN(c2ccccn2)CC1)n1ncn2cccc2c1=O (stereo unspecified),95,102,91,·
CCOC(=O)c1c(CN2CCC(C)CC2)n(C)c2cc(Br)c(OC)cc12,104,·,·,-22
CNC(=O)c1sc2nc(C)cc(C)c2c1-n1cccc1,104,104,83,·
Cc1cc(C)c2c(C(=O)O)cc(=O)[nH]c2c1,113,86,84,·
O=C(COC(=O)c1ccncc1)NCc1ccccc1,·,124,87,-20
COc1ccc(N2CCN(c3cc(C)nc4ccc(OC)cc34)CC2)cc1,·,80,97,-79
Cc1cc(NC(=O)OC2CCCC2)ccc1NC(=O)OC1CCCCC1,97,97,98,-23
O=C(COCc1cc(-c2ccc3c(c2)OCO3)on1)Nc1ccc(Cl)cn1,102,·,·,16
CCc1ccc(-n2c(=O)c3cccnc3n2CC(=O)Nc2cc(C)ccc2C)cc1,108,·,·,1

# Compound profiles, as listed above:
# Listed for CCOC(=O)c1c(CN2CCC(C)CC2)n(C)c2cc(Br)c(OC)cc12 : GIV Gai3 FP: 104; Sa growth 42C: ·; Sa growth 42C second temp: ·; HCMV UL50-53 inh: -22
# Listed for COc1ccc(N2CCN(c3cc(C)nc4ccc(OC)cc34)CC2)cc1 : GIV Gai3 FP: ·; Sa growth 42C: 80; Sa growth 42C second temp: 97; HCMV UL50-53 inh: -79

# (next part)
SMILES,GIV Gai3 FP,Sa growth 42C,Sa growth 42C second temp,HCMV UL50-53 inh
Cc1c(Cl)cccc1NC(=S)NCC(c1ccccc1)c1c[nH]c2ccccc12 (stereo unspecified),104,88,71,·
Cc1cc(C)n(-c2ccc(-n3cccc3/C=C(/C#N)S(=O)(=O)c3ccccc3)cc2)n1,114,115,100,-11
COC1(NS(=O)(=O)c2ccc(C)cc2)C(C)=CC(=O)C=C1C,107,1.7*,0.0*,0
CCN(CC(=O)NCc1cccs1)C(=O)c1cccc(OC)c1,·,107,101,4
O=C(NC1CCCc2ccccc21)c1ccccc1 (stereo unspecified),105,95,84,-26
COc1nc(NCc2ccccc2)nc(NC2CCCCC2)n1,104,109,109,-7
Cc1ccc(Cn2c(CCCNC(=O)C3CCCCC3)nc3ccccc32)cc1,106,83,88,1
O=S(=O)(Nc1ccc(N2CCOCC2)cc1)c1ccccc1,99,110,108,-6
COc1ccc(Nc2c(-c3ccc(N4CCOCC4)cc3)nc3ncccn23)cc1OC,101,113,84,-39
N#Cc1nc(-c2ccc(S(=O)(=O)N3CCCCC3)cc2)oc1N1CCCCC1,101,·,·,-15
O=C(c1ccco1)n1nc(-c2ccccc2)nc1NCc1ccccc1Cl,102,91,94,-2
O=C(c1cc(-c2ccccn2)n[nH]1)N1CCC(C(=O)N2CCc3ccccc3C2)CC1,98,·,·,-18

# Arranged by formula weight (high to low): part of the list above
SMILES,GIV Gai3 FP,Sa growth 42C,Sa growth 42C second temp,HCMV UL50-53 inh
N#Cc1nc(-c2ccc(S(=O)(=O)N3CCCCC3)cc2)oc1N1CCCCC1,101,·,·,-15
Cc1ccc(Cn2c(CCCNC(=O)C3CCCCC3)nc3ccccc32)cc1,106,83,88,1
O=C(c1ccco1)n1nc(-c2ccccc2)nc1NCc1ccccc1Cl,102,91,94,-2
CCN(CC(=O)NCc1cccs1)C(=O)c1cccc(OC)c1,·,107,101,4
COC1(NS(=O)(=O)c2ccc(C)cc2)C(C)=CC(=O)C=C1C,107,1.7*,0.0*,0
O=S(=O)(Nc1ccc(N2CCOCC2)cc1)c1ccccc1,99,110,108,-6
COc1nc(NCc2ccccc2)nc(NC2CCCCC2)n1,104,109,109,-7

# More structures
SMILES,GIV Gai3 FP,Sa growth 42C,Sa growth 42C second temp,HCMV UL50-53 inh
O=C(CSc1cccc[n+]1[O-])c1ccc2ccccc2c1,·,103,55,-126
Cc1c(C)c2ccc(O)c(CN(C)C)c2oc1=O,102,70,56,-30
COc1ccc(N(CC(=O)N2CCN(c3ccc(F)cc3)CC2)S(=O)(=O)c2ccc(OC)c(OC)c2)cc1,107,·,·,-4
O=C1NCCc2c1[nH]c1ccc(C3CCCCC3)cc21,110,·,·,3
COC(=O)C1=CN(C)C=C(C(=O)OC)C1c1ccc(C(F)(F)F)cc1,103,101,84,-27
O=C(NCC1CCN(c2ccc(S(=O)(=O)N3CCOCC3)cc2)CC1)c1ccccc1,100,85,84,6
CCC(=O)N1CCc2cc(CNS(=O)(=O)c3ccc(NC(=O)CC(C)C)cc3)ccc21,101,98,82,·
COCCNC(=O)CCCn1c(SCC(=O)NCc2ccc(C)cc2)nc2c(sc3ccccc32)c1=O,97,107,88,-28
CC1CCN(S(=O)(=O)c2nnc(NC(=O)c3cccc(Cl)c3)s2)CC1,106&107,64,43,3&-6
CCCCN(C)C(=O)Cn1cc(S(=O)(=O)NC)c(S(=O)(=O)NC)c1,110,95,99,-14
CCOC(=O)C1CCN(c2ccc(-c3nc(-c4ccccc4)no3)nn2)CC1,99,·,·,-30
Cc1ccc(Nc2ccc3ncnc4c3c2C(=O)c2ccccc2-4)cc1,107,68,61,·
Cc1ccc(S(=O)(=O)NCC(=O)NN=C2CCCCC2)cc1,108,98,98,1
O=C(SCc1ccco1)c1csc(C2COc3ccccc3O2)n1 (stereo unspecified),102,104,94,-5
CC1CN(CCO)Cc2ccc(Cl)cc21 (stereo unspecified),105,112,84,-26
CCOC(=O)N1CCC(NC(=O)CS(=O)(=O)Cc2nc(-c3ccc(C)cc3)oc2C)CC1,100,93,88,·
O=C1CC2(CCN(C(=O)C3CCCC3)CC2)Oc2ccccc21,97,101,87,-16
CSc1ncccc1C(=O)OCCN1C(=O)c2ccccc2C1=O,·,73,95,-15
O=C(Cc1ccccc1)Nc1nccs1,101,98,83,7
COc1cc(C2NC(=O)N(C)C(C)=C2C(=O)OCCOc2ccccc2)cc(Cl)c1O (stereo unspecified),103,·,·,-14
CCN1CCSc2ccc(C(=O)NCc3ccco3)cc21,98,92,86,·
CCOC(=O)c1c(S(=O)(=O)NCC(=O)N2CCN(c3cc(C)ccc3C)CC2)c(C)n(C)c1C,102,77,92,·
O=C1CN(C(=O)CCC(=O)c2cccs2)c2ccccc2N1,·,87,91,4
O=C(COc1cccc(Br)c1)OCCN1C(=O)c2ccccc2C1=O,100,99,86,-16
CCC(=O)NCCN1CCN(C(=O)CC)CC1,106,·,·,9
COC(=O)c1ccc(NCN2C(=O)C3CC=CCC3C2=O)cc1 (stereo unspecified),99,97,90,-21
C=CCOc1ccc(-c2nc3c(sc(=S)n3C)c(=O)[nH]2)cc1OC,102,106,86,-6
O=C(O)C1CC=CCC1C(=O)NCc1ccccc1 (stereo unspecified),101,97,82,1
CC1CCc2nc3ccc(S(=O)(=O)N4CCC(C(=O)NCc5ccccc5Cl)CC4)cc3c(C(=O)O)c2C1 (stereo unspecified),106,87,80,-14
COc1cccc(N2C(=O)N(Cc3ccc(C#N)cc3)c3ccccc3S2(=O)=O)c1,103,108,99,·
O=C1CC(c2ccco2)Cc2nc(NCc3ccccc3)ncc21 (stereo unspecified),·,102,87,-1
Cc1cccc(NCc2nnc3n2CCCCC3)c1C,101,72,88,·
CC(C)c1ccc(S(=O)(=O)N2CCN(c3cc(=O)n4nc(-c5ccccc5)sc4n3)CC2)cc1,101,·,·,43*
COCCn1c(CCC(=O)NCc2ccc(OC)cc2)nc2cccnc21,105,105,94,·
Cc1nc(-c2cccs2)sc1C(=O)OCc1cc(=O)n2c(C)csc2n1,·,97,99,0
COc1ccc(/C=C/C(=O)NCCCN2CCCCCC2)cc1,103,92,93,·
O=C1CC(=O)NC(SCC(=O)Nc2nc(-c3ccccc3)cs2)=N1,124,87,60,-8
CCCCn1c(CCC)nc2ccccc21,·,125,93,-6
CC(=O)SC1CC(=O)N(c2c(C)cccc2C)C1=O (stereo unspecified),98,52,39,-8
C=C(C)Cn1c(SCC(=O)OC)nc2sc3c(c2c1=O)CC(C)(C)OC3,100,·,·,-12
CC(C)n1cnc(S(=O)(=O)N2CCC(C(=O)NCCC3=CCCCC3)CC2)c1,107,·,·,-7
CC(CC(=O)NCc1ccccc1)CC1=NS(=O)(=O)c2ccccc2N1 (stereo unspecified),104,114,93,·
Cc1nc2ccccn2c1-c1ccnn1C(=O)c1ccno1,104,119,88,-28
Cc1ccc2ncc(-c3ccc(Cl)c(C)c3)nc2c1,104,102,94,-8
NC(=O)c1c(NC(=O)C2CCCN(C(=O)c3cc(F)cc(F)c3)C2)sc2c1CCCC2 (stereo unspecified),108,·,·,-10
COc1ccccc1N1CCN(Cc2ccc(C(=O)NC(C)C)cc2)CC1,102,104,93,5
CCCN1C(=O)C2(c3ccccc31)c1c(oc3ccc(C)cc3c1=O)C(=O)N2CC1CCCO1 (stereo unspecified),104,·,·,-10
O=C(Cn1nc(C(F)(F)F)c2c1CCCC2)N1CCCC1c1ccc(F)cc1 (stereo unspecified),119,·,·,-15
CCOC(=O)C1=C(C)N=c2s/c(=C\c3cc(Br)ccc3O)c(=O)n2C1c1ccccc1 (stereo unspecified),118,·,·,-22
CCCCOC(=O)c1cccc(NC(=O)C(C)C)c1,106,92,79,-15
